BJeLR viability = kills HRASV12-expressing BJeLR cells; actives 0.17% (n = 300,000); BJeLR (HRASV12) viability, CellTiter-Glo ATP luminescence, 48 h; reference of the scale not given here; inhibition, % (test concentration not listed);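 active means replicate mean above 50%; inconclusive means above 50% but judged a plate artefact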;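 further: 50 nL library stock added to about 25 µL; numbers are from one replicate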
Autofluor counter = counter-screen for toxin protease inhibitors: compound fluorescence; fluorescence intensity (test concentration not listed); compound autofluorescence counterscreen, microsphere flow cytometry; active compounds read high; AID 624483; actives 3.1% (n = 360,000);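 active means at least 3 SD above the mean of all compounds, about 16000 in these data; inconclusive means too few beads counted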;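 further: 100 nL of 1 mM stock went into each well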
PrP UTR inh = suppresses PrP 5' UTR mRNA reporter expression; AID 488862; cell-based PrP 5' UTR mRNA reporter, plate reader; inhibition, % (test concentration not listed); actives 0.35% (n = 340,000);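 active means every replicate at 50% or more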;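 further: 0 = median of the neutral control wells; tested in H4 reporter cells; numbers are from one replicate; inactives centre near -14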
Sa RN4220 lethal = kills Staphylococcus aureus RN4220 | S. aureus RN4220 growth, OD600, 16 h | inhibition, % (test concentration not listed) | actives 0.33% (n = 330,000) | AID 1259311;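 active means z-score of -3 or lower and OD600 up to 0.18 on both plates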;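 further: plate controls were untreated cells for no effect and reference antibiotic for full effect; stock transfer was 100 nL into about 80 µL; one replicate is shown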
Sa ugtP lethal = compounds lethal to S. aureus RN4220 ugtP deletion mutant | OD600 growth, 16 h; some inactives read as strong as hits | growth inhibition, % (concentration not given with the values) | actives 0.54% (n = 330,000) | AID 1259309;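 active means z-score under -3 and OD600 up to 0.15 on both plates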;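 further: plate controls were untreated wells for no effect and antibiotic for full effect; wells of about 80 µL received 100 nL stock; the first replicate is given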
Mtb hypoxia rep = inhibitors of hypoxia-regulated fluorescent reporter in Mycobacterium tuberculosis; M. tuberculosis hypoxia-regulated fluorescent reporter, fluorescence; fluorescence inhibition, % (test concentration not listed); actives 0.1% (n = 300,000);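 active means 35 to 45% if threefold the growth effect, above 45% if 1.5-fold the growth effect; inactive means the rest, general growth blockers included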;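 further: wells of about 50 µL received 100 nL stock; 0% = vehicle wells and 100% = reference inhibitor wells; whole bacteria with a GFP reporter of the hypoxia response; strong numbers were not always called active; many hits fall short of the cut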
Mtb hypoxia rep growth = also measured in Mtb hypoxia rep; calls as there; growth inhibition, %; measured here: M. tuberculosis growth (absorbance);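 0% = vehicle and 100% = reference antibiotic; read after six days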
Numbers without * were called inactive; ? = inconclusive; . = no result given.

SMILES	BJeLR viability	Autofluor counter	PrP UTR inh	Sa RN4220 lethal	Sa ugtP lethal	Mtb hypoxia rep	Mtb hypoxia rep growth
Cc1ccc(Oc2ccc(NC(=O)CCC(=O)OCC(=O)c3cccs3)cc2)cc1C	-7	16284*	-29	4.0	-15	-4	4
CC1(C)NC(=O)N(c2ccccc2Cl)C1(C)NO (stereo unspecified)	-4	9137	-9	8.2	2	17	7
COc1ccccc1NC(=O)C1C2CCCCC21 (stereo unspecified)	-3	3976	-2	1.5	-2	8	19
CN(CC(=O)N1CCN(c2cccc(Cl)c2)CC1)S(=O)(=O)c1cnc[nH]1	5	9626	-14	1.0	0	-10	-4
COc1cc(/C=C2\C(=N)N3N=CSC3=NC2=O)ccc1OS(=O)(=O)c1ccccc1	.	5840	0	0.2	-7	-3	17
CC(NC(=O)c1ccccc1)C(=O)NC1CCCc2ccccc21 (stereo unspecified)	.	5292	-14	8.7	-1	2	-6
CNC(=O)C1CC(=O)N(c2ccc(C)cc2)C1 (stereo unspecified)	3	?	-20	4.4	17	4	0
Cc1ccc2c(c1)NC(=O)C(CC(=O)NCCCN1CCN(c3cc(Cl)ccc3C)CC1)O2 (stereo unspecified)	-4	4499	3	0.8	15	.	.
Cc1ccc(C(=O)Nc2c(C(=O)NCc3ccco3)cnn2-c2ccccc2)cc1	-13	9360	-26	3.8	2	14	9
O=c1c(S(=O)(=O)c2ccc(Cl)cc2)cn(Cc2cccc(F)c2)c2ccc(F)cc12	-6	1962	-24	-3.1	-9	7	4
Cc1ccccc1S(=O)(=O)Cc1ccc(C(=O)N2CCN(c3ccccc3F)CC2)o1	4	5160	-16	7.7	9	18	8
CCCCC(=O)OCC(=O)c1[nH]c(C)c(C(=O)OCC)c1C	-13	10517	-28	0.0	8	3	8
O=C(NCCO)/C(=C/c1ccc2c(c1)OCO2)NC(=O)c1ccc(Br)cc1	.	4510	0	25	7	4	9
COC(=O)c1ccccc1NC(=O)CSc1nc(C)cc(C)n1	3	1976	-5	-1.2	-2	-4	-12
O=C(CSc1nnc(NC2CCCCC2)s1)N1CCOCC1	.	3597	-3	3.6	0	3	4
CCc1cc(OCCCCNCc2ccccc2)ccc1Cl	-9	2071	-14	-8.2	-29	19	10
CCOc1ccc(NC(=O)COC(=O)CCN2C(=O)C3CC=CCC3C2=O)cc1OCC (stereo unspecified)	.	2443	-22	2.9	8	4	2
COc1ccc(CSc2nc(O)cc(=O)n2CC(C)C)cc1F	-5	3491	5	5.5	-3	-4	12
[N-]=[N+]=NCCN1CCC(O)CCC1=O (stereo unspecified)	10	3625	-14	.	.	.	.
COc1cccc(N(C(=O)c2ccco2)C(C(=O)NC2CCCC2)c2ccc(N3CCOCC3)cc2)c1 (stereo unspecified)	-9	5998	3	2.7	4	1	-3
CC1=CC(C)(C)NC(=S)N1c1ccc(C)cc1	9	12619	-21	4.5	5	3	3
Cc1onc(-c2ccccc2Cl)c1C(=O)NCc1nc(-c2ccccc2)no1	1	4439	-47	8.9	-3	.	.
CC1(C)OC2CC3C4CC(F)C5=CC(=O)C=CC5(C)C4C(O)CC3(C)[C@]2(C(=O)CO)O1 (stereo partly specified)	.	.	.	3.5	-4	14	2
O=C(NNC(=O)c1ccccc1F)C1=NN(c2ccccc2)C(=O)CC1	-6	6037	-8	4.7	3	18	11
CCC(C)c1ccccc1NC(=O)c1cccnc1 (stereo unspecified)	-17	23335*	-3	5.9	1	1	2
COC(=O)c1c(NC(=O)/C=C/c2ccc3c(c2)OCO3)sc(C)c1C	10	2486	-19	-1.3	-1	4	-1
Cc1ccc(NC(=S)N2CCC(O)CC2)c(C)c1	-5	2036	-18	5.5	-4	15	1
COc1ccccc1NCCC#N	5	3636	-3	2.4	17	.	.
CN(C)C(=O)N1CCC(C(=O)N2CCCC(C(=O)c3ccc(C(C)(C)C)cc3)C2)CC1 (stereo unspecified)	0	2611	-20	2.6	-5	-1	-1
Cc1ccc(N(C(=O)CNC(=O)c2ccco2)C(C(=O)NCC2CCCO2)c2ccccc2)cc1C (stereo unspecified)	-6	3074	3	1.7	2	5	-1
Fc1ccc(CNCc2cccc(Br)c2)cc1	4	2395	-24	5.6	0	15	8
O=C(NC1CC1)c1cn(Cc2ccccc2)nc1-c1ccccc1	.	5142	-4	0.4	2	5	11
CCOc1ccc(C(=O)C(C)=O)c(OCC)c1	5	4061	-25	4.0	6	6	7
Cc1cccc(OCC(=O)NCC(=O)NN=Cc2ccc(O)cc2O)c1	.	.	.	5.3	-2	2	-3
COCc1ccc(CN2CCC(N3CCC(C(=O)N4CCCC4)CC3)CC2)o1	1	5461	-22	.	.	.	.
CCN(CC)C(=O)c1ccc(Cn2cc([N+](=O)[O-])cn2)o1	4	2575	-9	6.2	3	8	2
CCCCn1c(=O)[nH]c(=O)c2c1nc(-c1cc(Br)ccc1OC)n2C	2	5031	-1	3.1	-7	11	-3
Cc1ccc([N+](=O)[O-])c(C(=O)N/N=C/c2cccs2)c1	-1	4044	-19	.	.	.	.
COC(c1ccccc1)c1nnc(CCC(=O)N(C)Cc2cccc(-n3cccn3)c2)o1 (stereo unspecified)	9	4273	-45	3.3	5	12	1
Cc1cccc(C)c1N1CCN(S(=O)(=O)c2ccccc2)CC1	-3	4503	-20	5.1	6	2	5
CCC(C)OC(=O)C[N+](C)(C)CCOC1CC2CCC1(C)C2(C)C (stereo unspecified)	12	4373	-15	-9.0	8	15	30
COc1ccc(N(CC(=O)Nc2cccc(F)c2)S(=O)(=O)c2c(C)[nH]c(=O)[nH]c2=O)cc1	3	5316	-1	0.2	0	9	12
CCOC(=O)C(=CNc1ccc(NC2=NCC(C)S2)cc1)C(=O)OCC (stereo unspecified)	-2	2524	-13	2.0	-7	11	5
Cc1cc(C)n2nc(SCC(=O)N3CCC(C)CC3)nc2n1	.	4388	-5	2.0	1	1	6
COc1ccccc1C(=O)Nc1ccc(S(=O)(=O)N2CCC(C)CC2)cc1	-4	3907	-2	2.3	-2	11	3
COc1ccc(/C(C)=C2\SC(=S)N(CCC(=O)O)C2=O)cc1	-2	20765*	-8	7.0	5	7	5
CC1CCN(C(=O)Cc2nn(C)c(=O)c3ccccc23)CC1	2	2847	-13	0.0	-2	.	.
COc1ccc(C(=O)CCN2CCC(C)CC2)cc1	0	3775	-20	0.0	4	4	3
Cc1nnc2sc(SCC(=O)Nc3cccc(Cl)c3)nn2c1=O	-5	4065	-20	13	6	13	6
CCn1c(C)nc([N+](=O)[O-])c1Sc1ccc(F)cc1	-7	2055	-16	4.7	4	18	11
CC1=NN(c2ccccc2)C(=O)C1/C=C1\C(=O)NC(=O)N(c2cc(C)cc(C)c2)C1=O (stereo unspecified)	1	2402	0	-4.5	-5	10	13
N#Cc1c(C(F)(F)F)cc(=O)n2c1[nH]c1ccccc12	-12	4359	-56	72	68	.	.
COC(=O)C1(CCSC)NC(c2ccc(OC)cc2OC)C2C(=O)N(c3cccc(C(C)=O)c3)C(=O)C21 (stereo unspecified)	5	3823	-14	0.3	5	2	0
CCOc1ccc(S(=O)(=O)NC(C)C(=O)NCc2cccnc2)cc1 (stereo unspecified)	1	6151	-13	1.6	7	2	11
COC(=O)C(CC(=O)c1ccc(Br)cc1)n1cccn1 (stereo unspecified)	7	3879	-8	2.8	-1	16	3
CCOc1ccccc1NC1c2ccccc2C(=O)N1c1cccnc1 (stereo unspecified)	0	3283	-2	-0.5	12	2	-4
O=c1[nH]c(C2CCN(S(=O)(=O)c3ccccc3F)CC2)nc2c1nnn2Cc1ccc2c(c1)OCCO2	7	5255	-8	2.5	-4	-19	-4
CC(NC(=O)c1ccncc1)C(c1cccs1)N1CCOCC1 (stereo unspecified)	-1	7754	3	2.6	8	10	6
Cc1cc(CN(C)C(=O)c2cc(COc3ccc(C)c(C)c3)on2)on1	-9	7060	-76	1.9	5	2	6
COc1cccc(C2c3[nH]c4ccccc4c3C[C@H]3C(=O)N(C4CCN(Cc5ccccc5)CC4)CC(=O)N23)c1 (stereo partly specified)	2	4146	-8	-4.1	-16	-5	2

Reformatted with each value named: part of the list above
> COc1ccccc1C(=O)Nc1ccc(S(=O)(=O)N2CCC(C)CC2)cc1
  BJeLR viability: -4
  Autofluor counter: 3907
  PrP UTR inh: -2
  Sa RN4220 lethal: 2.3
  Sa ugtP lethal: -2
  Mtb hypoxia rep: 11
  Mtb hypoxia rep growth: 3
> COc1ccc(/C(C)=C2\SC(=S)N(CCC(=O)O)C2=O)cc1
  BJeLR viability: -2
  Autofluor counter: 20765*
  PrP UTR inh: -8
  Sa RN4220 lethal: 7.0
  Sa ugtP lethal: 5
  Mtb hypoxia rep: 7
  Mtb hypoxia rep growth: 5
> COc1ccc(C(=O)CCN2CCC(C)CC2)cc1
  BJeLR viability: 0
  Autofluor counter: 3775
  PrP UTR inh: -20
  Sa RN4220 lethal: 0.0
  Sa ugtP lethal: 4
  Mtb hypoxia rep: 4
  Mtb hypoxia rep growth: 3
> Cc1cc(C)n2nc(SCC(=O)N3CCC(C)CC3)nc2n1
  BJeLR viability: .
  Autofluor counter: 4388
  PrP UTR inh: -5
  Sa RN4220 lethal: 2.0
  Sa ugtP lethal: 1
  Mtb hypoxia rep: 1
  Mtb hypoxia rep growth: 6

The list goes on.
SMILES	BJeLR viability	Autofluor counter	PrP UTR inh	Sa RN4220 lethal	Sa ugtP lethal	Mtb hypoxia rep	Mtb hypoxia rep growth
Cc1cc(C(=O)Nc2cccc(C(=O)O)c2)oc1C	17	2787	8	-1.0	1	.	.
Cc1nnc(SCC(=O)Nc2ccccc2F)n1-c1ccc(F)cc1	3	3646	-99	1.5	-1	-3	7
COc1ccc(C(=O)c2cnc(C(C)C)n2C)cc1	0	7218	-57	3.7	2	1	7
CC1(c2ccccc2)CC(c2ccccc2)=Nc2ccccc2N1 (stereo unspecified)	3	3956	-15	5.2	8	7	4
COc1ccc(C(C)C)cc1S(=O)(=O)NCc1ccccn1	2	10363	-21	1.5	5	-8	-13
CCCCN(CC)Cc1c(O)ccc2c(-c3ccccc3)cc(=O)oc12	8	4732	-22	7.2	-2	13	15
Cc1cccc(S(=O)(=O)c2c(N)n(N=Cc3cccnc3)c3nc4ccccc4nc23)c1	.	.	.	5.8	3	6	-1
CCOC(=O)N1CCC(NC(=O)CN2C(=O)CSc3nc(C)cc(C)c32)CC1	6	4124	-5	-0.3	3	.	.
Cc1c(NS(=O)(=O)c2ccc(C(=O)NCc3ccc(F)cc3)cc2)c(=O)n(-c2ccccc2)n1C	.	5990	.	3.9	2	-4	9
CCOC(=O)NN=Cc1cn(Cc2ccc(Cl)cc2)c2ccccc12	.	.	.	3.8	-8	10	-4
O=[N+]([O-])c1ccc2oc(C(O)c3cccc(Cl)c3)cc2c1 (stereo unspecified)	-2	3076	-6	-4.8	4	10	5
Clc1cccc(N/N=C/c2ccncc2)c1	1	1890	-19	.	.	.	.
Fc1ccccc1NC(=S)N1CCN(C/C=C/c2ccccc2)CC1	0	1977	-8	3.9	1	15	6
Cc1cccc(S(=O)(=O)C(C#N)c2nc3ccccc3nc2N2CC(C)OC(C)C2)c1 (stereo unspecified)	2	8102	-17	5.6	1	14	7
COc1ccc(OC)c(S(=O)(=O)n2cnc3ccccc32)c1	12	3611	3	.	.	.	.
Cc1onc(C(=O)Nc2ccc3c(c2)OCO3)c1[N+](=O)[O-]	8	5621	-35	6.3	7	-4	3
O=S(=O)(c1ccccc1)n1c(C(O)c2ccccn2)cc2ccccc21 (stereo unspecified)	9	2324	-13	0.3	-1	-2	1
CC1(C)c2[nH]c3ccccc3c2C[C@@H]2C(=O)N(Cc3ccccc3Cl)C(=O)N21	5	4400	-21	.	.	.	.
Cc1ccc(S(=O)(=O)N(CC(O)CN2C(=O)NC(C)(C)C2=O)c2ccccc2)cc1 (stereo unspecified)	7	3026	-7	11	3	.	.
O=C(NN=Cc1ccccc1F)c1ccccc1OCc1ccccc1	.	.	.	2.8	2	2	6
O=C1CCCCN1CCC(=O)N1CCCC(Nc2ccccc2)C1 (stereo unspecified)	-4	4692	3	2.8	9	13	5
CCC1CSC(Nc2ccc(C(=O)/C=C/c3ccc(Br)cc3)cc2)=N1 (stereo unspecified)	3	3168	-28	0.2	30	-1	-5
O=C1CCC2(C(=O)O)Sc3ccccc3N12 (stereo unspecified)	-2	8285	-27	0.2	2	9	-2

Screens deposited in PubChem BioAssay by several laboratories.
